Compound activity (PubChem BioAssay)
ID4 SMM = binders of human ID4 protein; AID 624137; calls only; 31,000 compounds, 1.2% hits; small molecule microarray, Flag-ID4 binding, fluorescence F/B;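 active means spot signal over background at p below 0.07 in all four prints; compounds were printed on slides so no solution concentration is given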;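 further: a binder raises fluorescence above local background on the spot; about 2 pmol printed per array spot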
Target sequence (P47928 whole entry, looked up): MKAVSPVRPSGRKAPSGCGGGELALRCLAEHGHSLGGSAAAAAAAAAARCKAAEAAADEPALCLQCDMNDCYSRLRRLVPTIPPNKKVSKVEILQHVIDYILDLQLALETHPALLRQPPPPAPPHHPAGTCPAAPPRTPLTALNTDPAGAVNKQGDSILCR
Calls only; i = inactive. A portion of the library; count on the stated rates, not on these rows.

SMILES	ID4 SMM
COc1ccc(-c2ccc([C@@H]3[C@@H](C#N)N(C(=O)CN(C)C)[C@@H]3CO)cc2)cc1	i
Cc1ccc(NC(=O)COc2ccc(Br)cc2)cc1NC(=O)c1ccccc1	i
COCCNC(=O)C[C@H]1C[C@H]2c3cc(NC(=O)c4cccnc4)ccc3O[C@H]2[C@@H](CO)O1	i
C/C=C/c1ccc2c(c1)O[C@H](CN(C)Cc1ccccc1F)[C@H](C)CN([C@@H](C)CO)S2(=O)=O	i
O=C(Nc1ccc2c(c1)[C@@H]1C[C@H](CC(=O)N3CCc4ccccc4C3)O[C@@H](CO)[C@@H]1O2)c1ccc2c(c1)OCO2	i
Cc1ccc(C)c(NC(=O)CSc2nnc(-c3ccc(N)cc3)n2C)c1	i
C[C@@H](NC(=O)C[C@H]1CC[C@H](NC(=O)C2CCC2)[C@H](CO)O1)c1ccccc1	i
COc1ccc(C)cc1S(=O)(=O)N(C)CC(N)=O	i
CCOC(=O)c1sc(NC(=O)CSc2nccc(C)n2)c(C#N)c1C	i
CC(C)C#Cc1ccc2c(c1)O[C@@H](CN(C)C(=O)Cc1ccccn1)[C@@H](C)CN([C@@H](C)CO)S2(=O)=O	i
O=C(CCCOc1ccc(Cl)cc1Cl)Nc1ccncc1	i
CCC(=O)N(C)C[C@@H]1Oc2ncc(C#Cc3ccccc3)cc2C(=O)N([C@@H](C)CO)C[C@@H]1C	i
CC(=O)c1cccc(NC(=O)CN(C2CCCCC2)S(=O)(=O)c2c(C)cc(C)cc2C)c1	i
C[C@@H]1CN([C@H](C)CO)S(=O)(=O)c2ccc(-c3ccccc3)cc2O[C@@H]1CN(C)CC1CC1	i
COc1ccc([N+](=O)[O-])cc1NC(=O)CN(c1ccc(F)cc1)S(C)(=O)=O	i
C[C@@H]1CN([C@@H](C)CO)C(=O)c2cc(-c3cccc(C(=O)N(C)C)c3)cnc2O[C@H]1CN(C)C	i
CCc1cccc(C)c1NC(=O)CN(C)S(=O)(=O)c1ccc(Cl)cc1	i
Cc1ccc(S(=O)(=O)NC(C)C(=O)Nc2ccc(Oc3ccccc3)cc2)cc1 (stereo not given)	i
O=C(C[C@H]1C=C[C@H](NC(=O)c2cccc(F)c2)[C@H](CO)O1)NCc1ccccc1	i
COc1cccc(OCC(=O)Nc2ccccc2[N+](=O)[O-])c1	i
O=C(C[C@@H]1C=C[C@@H](NC(=O)CC2CC2)[C@H](CO)O1)NCc1ccc(-c2ccccc2)cc1	i
Cc1c(Cl)c(C)c(Cl)c(OCC(=O)Nc2ccccc2N2CCOCC2)c1Cl	i
COc1ccc2c3c1O[C@H]1C[C@@H](O)C=C[C@@]31CCN(C)C2	i
Cc1ccccc1-c1cnc2c(c1)C(=O)N([C@H](C)CO)C[C@@H](C)[C@@H](CN(C)Cc1ccncc1)O2	i
COCCNC(=O)C[C@@H]1C[C@H]2c3cc(N(C)C)ccc3O[C@H]2[C@@H](CO)O1	i
(listing goes on)
SMILES	ID4 SMM
Cc1cccc(N(CC(=O)Nc2c(C)n(C)n(-c3ccccc3)c2=O)S(C)(=O)=O)c1	i
O=C(Nc1ccc2c(c1)[C@@H]1C[C@H](CC(=O)N3CCCCC3)O[C@@H](CO)[C@@H]1O2)C1CCC1	i
C[C@H]1CN([C@@H](C)CO)S(=O)(=O)c2ccc(C#Cc3ccccn3)cc2O[C@H]1CN(C)C	i
CC(=O)c1cccc(NC(=O)CSc2nccc(C)n2)c1	i
COc1ccc(C(NC(C)=O)c2c(O)ccc3ccccc23)cc1OC (stereo not given)	i
CC(C)(C(=O)O)c1ccc(C(O)CCCN2CCC(C(O)(c3ccccc3)c3ccccc3)CC2)cc1 (stereo not given)	i
C[C@@H]1CN([C@H](C)CO)S(=O)(=O)c2ccc(-c3cccc(C#N)c3)cc2O[C@H]1CN(C)Cc1ccccn1	i
C[C@@H]1CN([C@@H](C)CO)S(=O)(=O)c2ccc(-c3ccc(C#N)cc3)cc2O[C@@H]1CN(C)C(=O)C1CC1	i
O=C(C[C@H]1C=C[C@@H](NC(=O)C2CCC2)[C@H](CO)O1)NCc1ccccc1Cl	i
O=C(COc1ccc(C(=O)Nc2cccc(C(F)(F)F)c2)cc1)Nc1cccc(Cl)c1	i
Cc1ccc(Cl)cc1NC(=O)CSc1nnc(-c2cccs2)n1C	i
CC(=O)OC1CCC2C3CCc4cc(O)ccc4C3CCC12C (stereo not given)	i
O=C(Cc1ccccc1)N[C@@H]1CC[C@@H](CC(=O)N2CCOCC2)O[C@H]1CO	i
CC(=O)c1ccc(O)c(CC=C(C)C)c1	i
Cc1c(Br)c([N+](=O)[O-])nn1CC(=O)Nc1sc2c(c1C#N)CCCC2	i
NCC[C@@H]1CC[C@H](NC(=O)c2ccccc2F)[C@@H](CO)O1	i
CC(=O)NC(=O)C1C=C2c3ccccc3C=CC2OC1=Nc1ccc(C)cc1 (stereo not given)	i
Cc1ccc([N+](=O)[O-])cc1NC(=O)CN(c1cc(C(F)(F)F)ccc1Cl)S(C)(=O)=O	i
O=C(c1ccccc1)N1Cc2ccccc2[C@@H]2OC(c3ccc(OCCCO)cc3)=N[C@]2(Cc2ccccc2)C1=O	i
C[C@@H]1CN([C@H](C)CO)C(=O)c2cc(C3=CCCC3)cnc2O[C@H]1CN(C)C(=O)C1CCC1	i
CS(=O)(=O)N(CC(=O)Nc1ccc(Br)c(Cl)c1)c1ccc(F)cc1	i
CC(C)NC(=O)N(C)C[C@@H]1Oc2cc(-c3cncnc3)ccc2S(=O)(=O)N([C@H](C)CO)C[C@@H]1C	i
C[C@H](CO)N1C[C@H](C)[C@H](CN(C)C(=O)c2cnccn2)Oc2ncc(C#CCC3CCCC3)cc2C1=O	i
COc1ccc(NC(=O)CSc2ncn(-c3ccccc3)n2)cc1Cl	i
O=C(O)CCC(=O)Nc1cccc(C(=O)c2ccccc2)c1	i

13 of the compounds above, with bars between the fields:
structure | ID4 SMM
C[C@@H]1CN([C@@H](C)CO)S(=O)(=O)c2ccc(-c3ccc(C#N)cc3)cc2O[C@@H]1CN(C)C(=O)C1CC1 | i
O=C(C[C@H]1C=C[C@@H](NC(=O)C2CCC2)[C@H](CO)O1)NCc1ccccc1Cl | i
O=C(COc1ccc(C(=O)Nc2cccc(C(F)(F)F)c2)cc1)Nc1cccc(Cl)c1 | i
Cc1ccc(Cl)cc1NC(=O)CSc1nnc(-c2cccs2)n1C | i
CC(=O)OC1CCC2C3CCc4cc(O)ccc4C3CCC12C (stereo not given) | i
O=C(Cc1ccccc1)N[C@@H]1CC[C@@H](CC(=O)N2CCOCC2)O[C@H]1CO | i
CC(=O)c1ccc(O)c(CC=C(C)C)c1 | i
Cc1c(Br)c([N+](=O)[O-])nn1CC(=O)Nc1sc2c(c1C#N)CCCC2 | i
NCC[C@@H]1CC[C@H](NC(=O)c2ccccc2F)[C@@H](CO)O1 | i
CC(=O)NC(=O)C1C=C2c3ccccc3C=CC2OC1=Nc1ccc(C)cc1 (stereo not given) | i
Cc1ccc([N+](=O)[O-])cc1NC(=O)CN(c1cc(C(F)(F)F)ccc1Cl)S(C)(=O)=O | i
O=C(c1ccccc1)N1Cc2ccccc2[C@@H]2OC(c3ccc(OCCCO)cc3)=N[C@]2(Cc2ccccc2)C1=O | i
C[C@@H]1CN([C@H](C)CO)C(=O)c2cc(C3=CCCC3)cnc2O[C@H]1CN(C)C(=O)C1CCC1 | i

Carrying on:
SMILES	ID4 SMM
CCn1c(SCC(=O)Nc2cc(Cl)cc(Cl)c2)nnc1-c1cccs1	i
C/C=C/c1ccc2c(c1)O[C@@H](CN(C)Cc1ccccn1)[C@@H](C)CN([C@@H](C)CO)S2(=O)=O	i
COCC(=O)N[C@@H]1CC[C@H](CC(=O)N2CCCCC2)O[C@H]1CO	i
C=CCn1c(SCC(=O)O)nnc1-c1ccccc1	i
Cc1cc(=O)[nH]c(SCC(=O)Nc2ccc([N+](=O)[O-])cc2)n1	i
COc1ccc(-c2nc(NC(=O)CSc3nnc(C)s3)ns2)cc1	i
CCCC#Cc1cnc2c(c1)C(=O)N([C@H](C)CO)C[C@H](C)[C@H](CN(C)Cc1cccnc1)O2	i
C[C@H]1CN([C@@H](C)CO)C(=O)c2ccccc2-c2ccccc2CO[C@H]1CN(C)C(=O)CCN(C)C	i
COc1ccc(CNC(=O)C[C@@H]2C[C@H]3c4cc(N(C)C)ccc4O[C@H]3[C@@H](CO)O2)cc1	i
CCCc1c(OCCCCc2nn[nH]n2)ccc(C(C)=O)c1O	i
COc1ccc(NC(=O)CSc2ncnc3sc(-c4ccccc4)cc23)cc1Cl	i
CC(=O)N(C)C[C@H]1Oc2ncc(/C=C/c3ccccc3)cc2C(=O)N([C@H](C)CO)C[C@@H]1C	i
CCOc1ccc(-n2c(SCC(=O)c3ccc(Br)cc3)nnc2-c2cccnc2)cc1	i
CCn1c(SCC(=O)c2cccc([N+](=O)[O-])c2)nnc1-c1cccnc1	i
Cc1ccc(S(=O)(=O)NCCSc2nnc(N)s2)cc1	i
CC(=O)Nc1ccc(Br)cc1-c1nc2ccccc2[nH]c1=O	i
CC(C)C#Cc1ccc2c(c1)O[C@H](CN(C)C(=O)Nc1ccccc1)[C@H](C)CN([C@@H](C)CO)S2(=O)=O	i
CCCC#Cc1ccc2c(c1)O[C@H](CN(C)Cc1ccccc1)[C@H](C)CN([C@@H](C)CO)S2(=O)=O	i
Cc1cc(C(=O)Nc2ccc(S(=O)(=O)Nc3onc(C)c3C)cc2)c(C)o1	i
CO[C@@H]1CN(C)C(=O)c2ccc(NC(=O)C3CC3)cc2OC[C@@H](C)N(CC2CC2)C[C@H]1C	i
CCCNC(=O)N[C@H]1CC[C@@H](CC(=O)NC2CCC2)O[C@H]1CO	i
C[C@H]1CN([C@@H](C)CO)C(=O)c2cc(C#CC3CC3)cnc2O[C@H]1CN(C)C(=O)C1CCCCC1	i
O=C(Nc1ccccc1C(=O)NCc1ccco1)c1ccc(-c2ccccc2)cc1	i
C[C@H](CO)N1C[C@H](C)[C@@H](CN(C)Cc2ccc(F)cc2)Oc2ncc(C3=CCCC3)cc2C1=O	i
C[C@H]1CN([C@@H](C)CO)C(=O)c2cc(-c3cccc(F)c3)cnc2O[C@H]1CN(C)C(=O)C1CCCCC1	i
Next structures:
SMILES	ID4 SMM
CN(C)c1ccc(NC(=O)CC2NCCNC2=O)cc1 (stereo not given)	i
CC(=O)N[C@@H]1C=C[C@H](CC(=O)NCc2ccc(Cl)cc2)O[C@H]1CO	i
CCCCn1c2nc3ccccc3nc2c2c(N)ncnc21	i
C/C=C/c1cnc2c(c1)C(=O)N([C@@H](C)CO)C[C@H](C)[C@@H](CN(C)C(=O)C1CC1)O2	i
CCNc1nc(NCC)nc(Oc2ccc(=O)[nH]n2)n1	i
CS(=O)(=O)Nc1ccc2c(c1)[C@@H]1C[C@@H](CC(=O)NCCN3CCCCC3)O[C@@H](CO)[C@@H]1O2	i
COC(=O)c1ccc(NC(=O)CSc2nc3ccccc3c(=O)n2-c2ccc(Cl)cc2)cc1	i
CCn1c(SCC(=O)Nc2cc(C)c(C)cc2Br)nnc1-c1ccccc1F	i
CCOC(=O)N(C)C[C@@H]1OCc2ccccc2-c2ccccc2C(=O)N([C@H](C)CO)C[C@H]1C	i
COc1cc(C)c(Cl)cc1S(=O)(=O)NCC1CCCO1 (stereo not given)	i
COc1ccc(Cl)cc1NC(=O)CC1NCCNC1=O (stereo not given)	i
CC(C)NC(=O)N(C)C[C@H]1Oc2cc(C#C[C@@H](C)O)ccc2S(=O)(=O)N([C@@H](C)CO)C[C@H]1C	i
COc1cc(OC)c2c(=O)c(-c3ccc4c(c3)OCO4)coc2c1	i
COc1cccc(S(=O)(=O)N[C@@H]2C=C[C@H](CC(=O)NC3Cc4ccccc4C3)O[C@H]2CO)c1	i
O=C(CSc1nnnn1-c1cccc2ccccc12)Nc1ccc(N2CCOCC2)c(Cl)c1	i
CN(C)C(=O)C[C@H]1C[C@@H]2c3cc(NC(=O)CC4CC4)ccc3O[C@@H]2[C@@H](CO)O1	i
Cc1ccccc1NS(=O)(=O)c1cc(OCC(N)=O)c(C)cc1Cl	i
CCCN(C)C[C@@H]1Oc2cc(C#CC(C)(C)O)ccc2S(=O)(=O)N([C@@H](C)CO)C[C@@H]1C	i
Cc1cc(C)c(NC(=O)CN(c2cccc(Br)c2)S(C)(=O)=O)c(C)c1	i
COc1ccccc1S(=O)(=O)N(C)C[C@H]1Oc2cc(C#CCC3CCCC3)ccc2S(=O)(=O)N([C@H](C)CO)C[C@@H]1C	i
COc1ccc(-n2c(Cn3ncc4ccccc4c3=O)n[nH]c2=S)cc1	i
C[C@@H]1CN([C@H](C)CO)C(=O)c2cc(NC(=O)C3CC3)ccc2O[C@H]1CN(C)Cc1ccccc1	i
Cn1c(=O)c2c(ncn2C)n(C)c1=O	i
Cc1ccc2nc(-c3cccc(NC(=O)COc4ccccc4)c3C)oc2c1	i
CC(c1ccccc1)n1c(Cn2ncc3ccccc3c2=O)n[nH]c1=S (stereo not given)	i
Going on with the list.
SMILES	ID4 SMM
Cc1ccc(C)c(NC(=O)CSc2ncccn2)c1	i
Cc1noc(C)c1NC(=O)N[C@H]1C=C[C@H](CC(=O)NCc2ccc(Cl)c(Cl)c2)O[C@H]1CO	i
Cc1ccc(-c2noc(CSc3nnc(-c4ccccc4)n3C)n2)cc1	i
COCCCNC(=O)[C@@]1(Cc2ccccc2N=[N+]=[N-])N=C(c2ccc(OCCCO)cc2)O[C@H]1c1ccccc1N=[N+]=[N-]	i
Cn1c(=O)c(C(=O)NCCCO)c(O)c2ccccc21	i
Cc1ccc2nc(N3CCN(c4cccc(C)c4C)CC3)c(-n3nc(C)cc3C)nc2c1	i
COc1ccc([Si](C)(C)[C@H]2[C@H](CCO)O[C@@]3(C(=O)N(Cc4ccc(NC(C)=O)cc4)c4ccccc43)[C@@H]2C)cc1	i
C[C@@H]1CN([C@@H](C)CO)S(=O)(=O)c2ccc(C3=CCCC3)cc2O[C@@H]1CN(C)CC1CCOCC1	i
CC(=O)N(C)C[C@@H]1Oc2ncc(C#Cc3ccccc3F)cc2C(=O)N([C@H](C)CO)C[C@H]1C	i
Cc1cccc(NC(=O)c2ccc(OC(C)C(=O)Nc3ccccc3C(F)(F)F)cc2)c1C (stereo not given)	i
CC(=O)N(C)C[C@@H]1Oc2ncc(-c3cccc(F)c3)cc2C(=O)N([C@H](C)CO)C[C@@H]1C	i
Cc1ccccc1NC(=O)CSc1ncnc2c1sc1nc(N3CCOCC3)c3c(c12)CCCC3	i
CC(=O)c1ccc(NC(=O)CSc2nc(=O)cc(N)n2-c2ccccc2)cc1	i
